Screens deposited in PubChem BioAssay by National Center for Advancing Translational Sciences (NCATS).
D2 ag: Beta-Arrestin HTS for Positive Allosteric Modulators of the Human D2 Dopamine Receptor: Agonists; D(2) dopamine receptor (Homo sapiens), P14416; DiscoveRx PathHunter D2 beta-arrestin, luminescence, 90 min; 100% = 57 uM dopamine signal; activation, % (no concentration beside the values); 360,000 tested, 0.084% active; in the data active = activation above about 40%; inconclusive = about 15% to 40%; inactive = below about 15%; note: compound concentration not given in the record; the text of the record calls up to 30% inactive
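Agonist mode: compounds alone added to overnight-plated D2 PathHunter cells for 90 min at 37 C, with 57 uM final dopamine (EC100) defining full response. Beta-arrestin recruitment detected by chemiluminescent reagent, read after 1 h at ambient temperature.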
PINK1 expr mod: A Quantitative High throughput Screen to Identify Chemical Modulators of PINK1 Expression; PINK1 immunofluorescence, high-content cytometry, 24 h; Potency, µM (doses to about 76.6 µM), for the others: at the top dose activation (PINK1 increase), most hits filed as activators; 410,000 tested, 0.2% active; AID 624263, 2012; active = well fitted activation curve with a large enough effect; inconclusive = small, poorly fitted or top-dose-only effect; inactive = flat fitted curve, though single readings scatter; cell line not stated here;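 note: potency is the fitted concentration of half-maximal effect; % of control where 0% means no effect; nearly all actives have a fitted effect of over 65% in size; a mitochondrial uncoupler was the plate control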
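Stable cell line treated 24 h with compounds at 5 concentrations (CCCP controls), then fixed and immunostained for PINK1 plus nuclear and cell stains; PINK1 immunofluorescence quantified by laser-scanning microplate cytometry.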
D2 potentiator: Beta-Arrestin HTS for Positive Allosteric Modulators of the Human D2 Dopamine Receptor: Potentiators; D(2) dopamine receptor (Homo sapiens), P14416; 360,000 tested, 0.23% active; potentiation, % (test concentration not listed); AID 624464, 2012; DiscoveRx D2 beta-arrestin cells, luminescence, 90 min; 100% = 57 uM dopamine signal; active = potentiation of 50% or more; inconclusive = 30% to 50%; inactive = 30% or less;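 note: compound concentration not given in the record; tested on top of an EC20 dose of dopamine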
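PathHunter beta-arrestin assay in DiscoveRx D2 cells. Compounds were added with an EC20 of dopamine (50 nM final) for 90 min at 37 deg C. Luminescence was read 1 h after detection reagent, with 57 uM dopamine as the EC100 control.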
TRPV1 potentiator: HTS Assay for Compounds that Act as Potentiators of the Vanilloid Receptor 1; Transient receptor potential cation channel subfamily V member 1 (Homo sapiens), Q8NER1; 320,000 tested, 0.02% active; TRPV1-expressing cells, Fluo-8 calcium influx, capsaicin EC20 potentiation; host cell line not named in the record; control for the full effect not named in the record; potentiation, % at 8.33 µM; active means potentiation above 80%; inconclusive means 30% to 80%; inactive means below 30%; note: 0% is about no effect
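Fluo-8 calcium influx in TRPV1-expressing cells, kinetic read (ex 480/em 520 nm). Compound added and read 3 min for agonist activity, followed by capsaicin at EC20 final and 2 min further read for enhancement.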
Sfp inh: qHTS Assay for Inhibitors of Bacillus subtilis Sfp phosphopantetheinyl transferase (PPTase); 4'-phosphopantetheinyl transferase ffp (Bacillus subtilis), Q9F4F7; Biochemical Sfp PPTase activity, qHTS; Potency, µM, without a hit: max response, negative = inhibition, usual class: inhibitors; 310,000 tested, 3.5% active; AID 1490, 2009; active = well fitted inhibition curve with a large enough effect; inconclusive = small, poorly fitted or top-dose-only effect, or another doubt; inactive = no such curve, though single readings can be large or run the other way;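 note: the enzyme is Sfp with the accession as filed and its product quenches rhodamine fluorescence; potency is the fitted concentration of half-maximal effect; 0% = enzyme reaction without inhibitor and -100% = no enzyme wells; top concentration of the series not given in the record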
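With Hepes-Na pH 7.6 buffer containing 10 mM MgCl2, Sfp (15 nM) modified BHQ-2-YbbR (12.5 uM) using rhodamine-CoA (5 uM). Two reads 30 minutes apart at 525/598 nm yielded each well's rate.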
Six1-Eya2 inh: qHTS Assay for Inhibitors of the Six1/Eya2 Interaction | Homeobox protein SIX1 (Homo sapiens) + Protein phosphatase EYA2 (Homo sapiens), … | AlphaScreen GST-Six1/His-Eya2 binding, biochemical; active compounds read low; control for the full effect not named in the record | activity change, % (concentration not given with the values) | 360,000 tested, 0.56% active | AID 651725, 2012; in the data active = activity change below about -65%; inconclusive = about -30% to -65%; inactive = above about -30%; note: % is set by controls: 0 for no effect and ±100 for the full control effect
Target sequence (O00167 whole entry, looked up): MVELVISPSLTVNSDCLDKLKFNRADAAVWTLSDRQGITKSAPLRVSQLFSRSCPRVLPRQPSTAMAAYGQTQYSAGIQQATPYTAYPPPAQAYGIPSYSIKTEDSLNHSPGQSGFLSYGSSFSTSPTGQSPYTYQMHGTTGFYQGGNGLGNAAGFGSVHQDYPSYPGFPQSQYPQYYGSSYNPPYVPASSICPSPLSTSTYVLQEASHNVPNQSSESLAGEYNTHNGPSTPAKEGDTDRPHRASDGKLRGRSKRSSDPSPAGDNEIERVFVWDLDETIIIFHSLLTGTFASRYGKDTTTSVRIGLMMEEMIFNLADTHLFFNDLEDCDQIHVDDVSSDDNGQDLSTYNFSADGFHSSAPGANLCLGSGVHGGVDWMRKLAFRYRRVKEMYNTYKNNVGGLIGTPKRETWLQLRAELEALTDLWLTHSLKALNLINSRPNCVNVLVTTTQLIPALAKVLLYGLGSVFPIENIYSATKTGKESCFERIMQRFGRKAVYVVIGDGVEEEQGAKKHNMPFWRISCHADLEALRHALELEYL
Target sequence (Q15475 whole entry, looked up): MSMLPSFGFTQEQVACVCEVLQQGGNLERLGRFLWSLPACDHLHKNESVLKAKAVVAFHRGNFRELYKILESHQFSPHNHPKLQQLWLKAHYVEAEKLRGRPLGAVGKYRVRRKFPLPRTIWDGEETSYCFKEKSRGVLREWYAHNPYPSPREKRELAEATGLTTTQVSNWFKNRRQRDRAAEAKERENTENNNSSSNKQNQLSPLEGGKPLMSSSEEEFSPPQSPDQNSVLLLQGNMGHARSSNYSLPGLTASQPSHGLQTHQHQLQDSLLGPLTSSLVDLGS
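Homogeneous AlphaScreen proximity assay pairing GST-Six1 with His-tagged Eya2 (added as 5X mix: 250 nM and 500 nM) in 50 mM Tris pH 8.0, 300 mM NaCl, 1 mM TCEP. Glutathione donor and nickel acceptor beads; 1 h, 37 °C, dark.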
CtBP-E1A blk: qHTS Assay for Inhibitors of the CtBP/E1A Interaction. AlphaScreen GST-E1A/His-CtBP binding, 1536-well; active compounds read low; control for the full effect not named in the record. CtBP / adenovirus E1A interaction (AlphaScreen). 340,000 tested, 0.49% active. activity change, % (concentration not given with the values). AID 651724, 2012; in the data active means activity change below about -65%; inconclusive means about -30% to -65%; inactive means above about -30%; note: % is set by controls: 0 for no effect and ±100 for the full control effect
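Homogeneous bead-based format: GST-tagged E1A captured on glutathione donor beads, His-tagged CtBP on nickel acceptor beads; compounds precede bead addition by 2 h at 37 °C.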
An asterisk follows results filed as active; ? = inconclusive; nt = no result given; & = joins results of further samples; [ ] = another dose, or the depositor's remark.

canonical_smiles,D2 ag,PINK1 expr mod,D2 potentiator,TRPV1 potentiator,Sfp inh,Six1-Eya2 inh,CtBP-E1A blk
CCn1c(SC(C)C(=O)NC2CCCC2)nc2cc(S(N)(=O)=O)ccc21 (stereo not given),-2.6,0.2%,-3,-2,nt,3,-17
O=C(NCCCN1CCOCC1)c1cn(-c2ccccc2)nc1-c1cccs1,-1.9,1.3%,-14,-20,2%,1,-1
CCC(C)NC(=O)C1(N2C(=O)c3ccccc3C2=O)CCCC1 (stereo not given),-0.3,1.5%,-9,nt,nt,2,0
CCOC(=O)CN1C(=O)C2(OCCCO2)c2cc(Br)ccc21,0.3,1.7%,1,-13,21%,2,-3
COc1ccc(OC)c(N2Cc3cc(C)c(C)cc3C2)c1,0.1,-3.4%[38.3 µM],4,-2,1%,-9,-10
Cc1c(C(=O)N2CCN(c3ccc(C(F)(F)F)cn3)CC2)oc2ccccc12,-3.5,-1.4%,-6,1,1%,5,12
c1ccc(N2CC3CCc4ccccc4C3=N2)cc1 (stereo not given),3.1,7.1%,0,-4,0%,93,104
COc1ccc(Cn2c(-c3ccccc3C)nc3c(c(=O)c4ccccc4n3C)c2=O)cc1,-3.8,-1.1%,-14,nt,nt,4,nt
O=c1cc(-c2ccccc2)c2cc3c(cc2[nH]1)OCCO3,-1.2,7.3%,-3,-11,5%,-1,0
CC(NC(=O)C(=O)N/N=C/c1ccccc1)c1ccccc1 (stereo not given),-1.8,26%,-2,-5,14%,-5,nt
Cc1occc1C(=O)N1CCN(C(c2ccccc2)c2ccccc2)CC1,-3.7,nt,-3,17,-7%,2,21
COc1cc(NS(=O)(=O)c2ccc(NC(=S)NC(C)=O)cc2)nc(OC)n1,-8.9,-1.3%,-5,nt,nt,-6,nt
Cc1oc2ccc(O)c(CN3CCOCC3)c2c1C(C)O (stereo not given),-2.7,-1.6%,0,-8,12%,2,-1
COCCCNC(=O)c1ccc(NS(C)(=O)=O)cc1,2.5,3.9%,-2,-5,13%,15,-1
COc1ccc(OC)c(NC(=O)Cn2nc(C)c3ccccc3c2=O)c1,-3.0,4.5%,-13,-10,3%,-8,2
CC(C)[C@H](NC(=O)c1ccc(Cl)c([N+](=O)[O-])c1)C(=O)O,3.7,0.9%,0,5,24%,4,3
COc1ccc(Cl)cc1NC(=O)C(C)N1CCN(c2ccccn2)CC1 (stereo not given),-5.0,1.3%,-4,2,-17%,-14,nt
Cc1ccc2nc3c(c(C(=O)OCC(=O)NC4CCS(=O)(=O)C4)c2c1)CCCC3 (stereo not given),-0.7,2.4%,-8,-10,12%,-9,6
COc1ccc(-c2c(-c3cc(OC)cc(OC)c3)n(C)c3ccc(-c4ccc(S(N)(=O)=O)cc4)cc23)cc1,-2.0,8.3%,-7,-3,nt,-26,-16
O=C(Nc1ccccc1C(=O)NC(Cc1ccccc1)C(=O)NC1CCCCCC1)c1ccccc1 (stereo not given),-3.2,4.8%,9,-2,?,-8,-1
Cc1ccc(S(=O)(=O)NC2=C(N3CCN(c4ccccc4F)CC3)C(=O)c3ccccc3C2=O)cc1,11&1.5,-2.8%&-1.3%,-5&20,0,-10%,-5&-26,-5&-2
COc1cc2c(cc1OC)CN(C(=O)Cc1c(F)cccc1Cl)CC2,-3.1,-0.5%,-8,0,10%,-6,-9
Cc1ccc(NC(=O)c2cncc(Br)c2)c([N+](=O)[O-])c1,1.1,2.6%,-12,-5,14%,8,2
CCOC(=O)N1CCN(C(=O)c2ccc(S(=O)(=O)NCc3ccco3)cc2)CC1,0.1,0.1%,3,-15,-8%,-2,-17
O=C(NCc1ccccc1)c1ccc2c(c1)OCCO2,2.5,0.3%,-4,-13,19%,6,8
Cc1ccc(CNC(=O)Nc2ccc(OC(F)(F)F)cc2)n1C,2.9,0.8%,-7,-21,6%,0,-2
CC(C(=O)Nc1ccccc1C(=O)N1CCOCC1)N(c1ccc(Cl)cc1)S(C)(=O)=O (stereo not given),2.5,-1.2%,-5,1,7%,7,7
Cc1csc(NC(=O)CSC2=NS(=O)(=O)c3cc(F)ccc3N2)n1,1.3,3.1%,10,8,nt,7,0
NS(=O)(=O)c1cccc(NC(=O)COC(=O)CCSc2ccccc2)c1,-7.1,0.2%,-5,-12,3%,7,-5
CCCS(=O)(=O)NC(=O)C1(C)CCCN(C(=O)c2cc(F)cc(F)c2)C1 (stereo not given),3.0,2.7%,-10,nt,nt,4,6

Two neighbouring records already listed:
canonical_smiles,D2 ag,PINK1 expr mod,D2 potentiator,TRPV1 potentiator,Sfp inh,Six1-Eya2 inh,CtBP-E1A blk
CCn1c(SC(C)C(=O)NC2CCCC2)nc2cc(S(N)(=O)=O)ccc21 (stereo not given),-2.6,0.2%,-3,-2,nt,3,-17
O=C(NCCCN1CCOCC1)c1cn(-c2ccccc2)nc1-c1cccs1,-1.9,1.3%,-14,-20,2%,1,-1

(more compounds)
canonical_smiles,D2 ag,PINK1 expr mod,D2 potentiator,TRPV1 potentiator,Sfp inh,Six1-Eya2 inh,CtBP-E1A blk
CCC1(c2ccccc2)NC(=S)N(c2cccc(C)c2C)N1 (stereo not given),-0.8,-0.7%,-11,3,?,6,-23
CCN(C(=O)CN1CCN(S(=O)(=O)c2ccccc2C(F)(F)F)CC1)c1c(N)n(Cc2ccccc2)c(=O)[nH]c1=O,-0.1,-1.1%,15,15,-3%,11,0
COc1ccc(Cc2nc3ccc(C(=O)NCCc4ccncc4)cc3o2)cc1OC,2.1,1.5%,2,-4,8%,0,-4
CN(C)c1nc(Oc2ccc(=O)[nH]n2)nc(N2CCCCC2)n1,-0.5,-1.6%,-6,16,6%,1,-1
Cc1ccc(S(=O)(=O)N(Cc2cc3ccccc3[nH]c2=O)CC2CCCO2)cc1 (stereo not given),1.5,-1.1%,0,3,2%,6,9
O=C(c1ccc(Cl)cc1)c1ccc(Oc2cc(NN3CCCCC3)c([N+](=O)[O-])cc2[N+](=O)[O-])cc1,1.0,1.6%,2,-12,14%,-6,-4
Cc1c(N2C(=O)c3ccc(Br)cc3C2=O)c(=O)n(-c2ccccc2)n1C,1.7,1.8%,12,11,23%,5,6
Cc1ccc(C)c(OCC(=O)O/N=C(\N)c2cccc([N+](=O)[O-])c2)c1,0.6,3.0%,-2,17,-4%,-11,-20
CSc1ncc(Sc2ccccc2)c(C(=O)O)n1,-4.3,0.8%,-24,nt,nt,31,1
COC(=O)CC(NC(=O)c1ccc(C)cc1)c1ccccc1 (stereo not given),-4.1,nt,-27,-12,3%,4,8
COc1ccc(NC(=O)N(C)C[C@H]2Oc3ccc(NC(=O)C4CC4)cc3C(=O)N([C@H](C)CO)C[C@@H]2C)cc1,-1.0,-0.2%,nt,nt,nt,7,-11
Cn1cc([N+](=O)[O-])c(C(=O)Nc2nccs2)n1,1.0,-1.2%,-12,-9,-2%,3,nt
COC(=O)c1ccccc1NC(=O)c1ccc2c(c1)CC(C)O2 (stereo not given),0.5,0.4%,4,12,-4%,6,-1
Cc1c(CC(=O)O)c(=O)oc2c(C)c(OCc3c(F)cccc3Cl)ccc12,-2.2,1.6%,-5,6,9%,-1,1
CCCCOc1ccc(C(=O)OCC(=O)N2CCOCC2)cc1,-1.9,1.7%,-6,13,5%,-1,-10
COC(=O)N/N=C/c1cn(Cc2ccc(F)cc2)c2ccccc12,1.0,1.1%,-1,5,6%,1,-23
COC(=O)C1=C(C)C(c2cccs2)NC(=O)N1C (stereo not given),-0.1,5.1%[38.3 µM],7,4,11%,4,7
CCC(CC)COC(=O)C1=C(C)NC(=O)NC1c1cccc([N+](=O)[O-])c1 (stereo not given),7.5,1.0%,-5,-22,14%,10,nt
Cc1ccc(C2SCC(=O)N2Cc2cn3ccsc3n2)o1 (stereo not given),-1.9,0.4%,-14,0,56µM*,-3,-2
Cc1ccc(S(=O)(=O)NCCN2CCOCC2)cc1C,-1.7,14µM*,-14,?,16%,7,12
CC1CCCCC1NC(=O)CSc1nnc(COc2ccc(Cl)cc2)o1 (stereo not given),-1.2,5.5%,-4,-3,21%,1,8
COC(=O)CCC/C=C1/SCC(NC(=O)c2ccccc2)C1=O (stereo not given),-9.4,8.3%,-32,0,?,-14,-19
CCOC(=O)c1cc(=O)n(Cc2ccccc2C)c2ccccc12,0.9,11%[38.3 µM],2,-19,-16%,14,10
C=CCn1c(SCC(=O)c2[nH]c(C)c(C(=O)OCC)c2C)nc2scc(-c3ccc(OC)cc3)c2c1=O,-0.6,-3.7%,-17,8,-8%,4,6
COc1ccc(OC)c(S(=O)(=O)N2CCC(C(=O)NCc3cccnc3)CC2)c1,5.8,1.0%,-5,6,7%,2,-1
COc1ccc(Nc2cc(C)c3ccc(O)cc3n2)cc1,-2.6,4.1%,-18,?,?,-2,nt
Oc1ccc(Br)cc1-c1cc(-c2ccco2)[nH]n1,1.8,3.5%,-19,14,-9%,-9,-13
Nc1nc(-c2ccco2)cs1,-15,1.9%,11,-12,50µM*,-14,-3
O=C(NC(=S)Nc1ccc(Cl)cc1)c1ccccc1,2.7,0.2%,0,?,-11%,13,5
CCCCn1c(N)c(N(CCOC)C(=O)c2cc(-c3ccccc3Cl)nc3ccccc23)c(=O)[nH]c1=O,3.1,4.6%,-6,3,nt,9,0
COC(=O)NC1(C(F)(F)F)C(=O)NC(C)=C1C(=O)OC (stereo not given),0.3,-0.3%,-10,-1,6%,3,1
COc1ccc(C2C(C#N)=C(C)NC3=C2C(=O)CC(C)(C)C3)cc1 (stereo not given),-2.1,-0.7%,2,6,19%,6,-1
